Rce1 inhib – inhibitors of yeast Ras-converting enzyme. calls only. Q03530. AID 2563. 290,000 compounds, 0.27% hits. yeast membranes, quenched prenylated peptide cleavage fluorescence;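 active = fall in fluorescence gain of 50% or more versus controls, with final raw signal at or below 3038400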;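 also: plate controls were neutral control wells for no effect and wells lacking membranes for full effect; tested at 10 µM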
Target sequence (Q03530 whole entry, looked up): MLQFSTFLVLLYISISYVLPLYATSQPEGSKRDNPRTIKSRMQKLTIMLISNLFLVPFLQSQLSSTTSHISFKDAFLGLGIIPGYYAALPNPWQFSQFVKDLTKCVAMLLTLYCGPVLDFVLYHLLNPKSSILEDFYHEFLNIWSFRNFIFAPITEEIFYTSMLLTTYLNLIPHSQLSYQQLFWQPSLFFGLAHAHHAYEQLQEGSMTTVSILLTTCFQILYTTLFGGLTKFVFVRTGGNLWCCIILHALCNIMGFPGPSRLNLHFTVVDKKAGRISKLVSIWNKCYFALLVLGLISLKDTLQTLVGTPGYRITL
CSC inhib – blocks cancer stem cells | cancer stem cell-like cells viability, luminescence | inhibition, % at 7.5 µM | 300,000 compounds, 1.1% hits;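 active = mean at 75% or more and at least half the replicates too; tested in HMLE shEcad cells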;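 also: 0% = median of negative and 100% = median of positive control wells; the first replicate is given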
HIV Env fusion – blocks HIV Env-driven cell-cell fusion; HeLa-JRFL Env/CEM21 cell fusion, luciferase; inhibition, % at 12.3 µM; 360,000 compounds, 1.1% hits; AID 651610;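 active = mean replicate inhibition score of at least 50 and every replicate individually at or above 50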;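 also: 0% = plate neutral controls and 100% = maraviroc near 300 nM; one replicate is shown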
MT1-MMP act inh – blocks activation of human MT1-MMP | P50281 | HT1080 RFP-PRO-GFP cells, GFP/RFP ratio fluorescence, overnight; percent of plate control window, DMSO zero | GFP/RFP ratio change, % at 20 µM | 360,000 compounds, 0.061% hits | AID 651647;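 active = GFP/RFP ratio change of at least 30% with cell ATP level not reduced by more than half and red fluorescence within 50% of control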; also: strong numbers were not always called active
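Assay system: HT1080 RFP-PRO-GFP cells. Benchmarks: DMSO vehicle wells and RFP-L50D-GFP reporter cell wells. Times: overnight cell settling, then overnight compound exposure, 37 °C, 5% CO2. Compound: 20 µM single dose, 1% DMSO. Read-out basis: GFP/RFP fluorescence ratio.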
Yeast UUG start – modulators of start codon recognition fidelity in yeast; S. cerevisiae UUG-firefly luciferase reporter, luminescence/redox ratio; activity score, % at 18.7 µM; 350,000 compounds, 0.13% hits; AID 602363;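 active = replicate mean at a twofold rise or more, about +100% in these data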;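 also: firefly luciferase made from a UUG start codon reports start codon fidelity; reporter light over untreated wells divided by growth signal over untreated wells; some hits fall short of that in this replicate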
PABP polyA inh – blocks human PABP binding to poly(A) RNA | P11940 | fluorescence polarization | inhibition, % at 35 µM | 290,000 compounds, 1% hits | AID 2014;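 active = 50% or more with normal probe brightness, or confirmed in later tests; about a fifth of its hits are not listed in these tables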;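 also: calls also rest on retests at 20 µM and on dose response follow-up; controls were probe without protein and protein plus probe with vehicle; some compounds called inactive have numbers as strong as hits; many hits fall short of the cut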
Target sequence (P11940 whole entry, looked up): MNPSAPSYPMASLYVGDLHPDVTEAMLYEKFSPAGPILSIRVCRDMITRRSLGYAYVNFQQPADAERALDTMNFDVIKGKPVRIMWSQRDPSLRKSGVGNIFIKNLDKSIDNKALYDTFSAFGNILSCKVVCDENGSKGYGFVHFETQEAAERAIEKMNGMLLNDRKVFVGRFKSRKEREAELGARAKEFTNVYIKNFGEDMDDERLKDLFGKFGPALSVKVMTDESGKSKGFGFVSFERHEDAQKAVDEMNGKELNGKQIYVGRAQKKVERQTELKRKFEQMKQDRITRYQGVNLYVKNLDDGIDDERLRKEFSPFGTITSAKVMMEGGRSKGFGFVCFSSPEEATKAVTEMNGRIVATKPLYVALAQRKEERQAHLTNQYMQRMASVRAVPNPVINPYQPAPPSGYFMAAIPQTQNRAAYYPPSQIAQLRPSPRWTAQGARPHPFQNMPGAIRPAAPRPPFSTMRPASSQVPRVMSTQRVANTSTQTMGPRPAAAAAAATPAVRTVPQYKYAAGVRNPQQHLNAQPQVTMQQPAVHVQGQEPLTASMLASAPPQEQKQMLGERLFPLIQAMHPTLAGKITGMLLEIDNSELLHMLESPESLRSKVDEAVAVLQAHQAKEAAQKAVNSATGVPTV
eIF4H FP inh – inhibitors of RNA binding by human eIF4H; Q15056; eIF4H fluorescence polarization binding assay; inhibition, % at 35 µM; 290,000 compounds, 0.94% hits; AID 2012;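 active = 50% or more with normal probe brightness, or confirmed in later tests; about a fifth of its hits are not listed in these tables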;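 also: calls also rest on retests at 20 µM and on dose response follow-up; 0% = protein and probe with vehicle and 100% = probe without protein; strong numbers were not always called active; many hits fall short of the cut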
MT1-MMP act inh RFP – recorded beside MT1-MMP act inh, whose call it bears; RFP signal change, %; measured here: RFP expression control read;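 0 = vehicle wells; hits needed this value within 50% of zero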
Numbers without * were called inactive; i = inactive; . = no result given.

1: CC(=O)Nc1nc2ccc(C(=O)NC3CCCCC3)cc2s1
2: CC(=O)C1=C(O)C(=O)N(c2ccc(Br)cc2)C1c1ccc(Br)cc1 (stereo not given)
3: CN(Cc1cn(C)c2ccccc12)C(=S)Nc1cc(F)cc(F)c1
4: Cc1ccc(-c2cc(-c3ccccc3)nc(Cl)n2)cc1
5: COc1ccc([C@H]2N[C@]3(CCCN(Cc4ccc(Br)cc4)C3=O)[C@H]3C(=O)N(Cc4ccccc4)C(=O)[C@@H]23)cc1
6: COc1ccccc1NC(=S)N1CCNC(=O)C1CC(=O)Nc1cccc(C)c1 (stereo not given)
7: Cc1ccccc1N=CC=C1OC(C)(C)C(C)(C)O1
8: CC1CN(C(=O)c2ccccc2NS(=O)(=O)c2ccc(Cl)cc2)CC(C)O1 (stereo not given)
entry no.,1,2,3,4,5,6,7,8
Rce1 inhib,i,i,i,i,.,i,i,.
CSC inhib,-14,-5,-5,-4,.,-2,11,0
HIV Env fusion,.,-6,15,15,-79,2,.,-4
MT1-MMP act inh,6,7,2,-2,5,5,1,-6
MT1-MMP act inh RFP,4,-8,6,-8,-7,8,-2,-1
Yeast UUG start,12,-16,.,-8,-17,.,4,-4
PABP polyA inh,15,-7,-1,-4,.,-4,4,.
eIF4H FP inh,-8,0,-10,-4,.,-4,24,.

Complete entries from above. Values in the order: Rce1 inhib | CSC inhib | HIV Env fusion | MT1-MMP act inh | MT1-MMP act inh RFP | Yeast UUG start | PABP polyA inh | eIF4H FP inh
COc1ccccc1NC(=S)N1CCNC(=O)C1CC(=O)Nc1cccc(C)c1 (stereo not given) is entered as i | -2 | 2 | 5 | 8 | . | -4 | -4
CN(Cc1cn(C)c2ccccc12)C(=S)Nc1cc(F)cc(F)c1 is entered as i | -5 | 15 | 2 | 6 | . | -1 | -10
Cc1ccc(-c2cc(-c3ccccc3)nc(Cl)n2)cc1 is entered as i | -4 | 15 | -2 | -8 | -8 | -4 | -4

(next part)
9: O=C(CN1C(=O)C2C3c4ccccc4C(c4ccccc43)C2C1=O)N1CCOCC1 (stereo not given)
10: Cc1cc(C(=O)NC2CCCCCC2)c2ccccc2n1
11: CC1(C)CC(NS(=O)(=O)OCC(Cl)(Cl)Cl)c2cc(C#N)ccc2O1 (stereo not given)
12: CCOC(=O)N1CCN(C(=O)CCc2nc3sc4c(c3c(=O)[nH]2)CCCC4)CC1
13: N#Cc1nc(-c2ccccc2F)oc1NCc1ccccc1
14: CCc1ccc(NCc2nc3ccccc3c(=O)[nH]2)cc1
15: COc1c(C)cc(C(=O)C2CCCN(C(=O)c3cccc(F)c3)C2)cc1C (stereo not given)
16: CCCN(CC(=O)Nc1ccccc1C)C(=O)C1CC(=O)N(c2ccccc2OCC)C1 (stereo not given)
entry no.,9,10,11,12,13,14,15,16
Rce1 inhib,i,.,i,i,i,i,i,.
CSC inhib,-2,-8,18,4,-11,2,6,.
HIV Env fusion,-10,18,-5,2,10,-249,9,3
MT1-MMP act inh,2,-2,0,-7,1,-7,-3,-1
MT1-MMP act inh RFP,3,3,1,-2,-3,-5,0,2
Yeast UUG start,-5,-19,-17,.,-12,-56,-41,-14
PABP polyA inh,-9,.,14,-11,-9,-7,-6,.
eIF4H FP inh,-12,.,3,-3,-7,-2,-13,.

17: CCOC(=O)c1c(NC(=O)CN(CC)CC)sc2c1CCN(C(=O)OCC)C2
18: O=[N+]([O-])c1cccc(-n2nnnc2CNCc2ccccc2)c1
19: Cc1cccc(N/N=C(\C=N\N)C(=O)c2ccc(Br)cc2)c1
20: CCc1nnc(NC(=O)CCC(=O)N2CCN(Cc3ccc(Cl)cc3)CC2)s1
21: COC(=O)c1cccc(N(C(=O)c2cnccn2)C(C(=O)NC2CCCCC2)c2cn(C)nc2C)c1 (stereo not given)
22: N#C/C(=N/O)c1nc(-c2ccc(F)cc2)cs1
23: O=C(c1nn(Cc2ccccc2)c(=O)c2ccccc12)N1CCN(c2ccccn2)CC1
24: Cn1c(NCCOc2ccccc2Cl)nc2cc(-c3ccc(F)cc3)sc2c1=O
entry no.,17,18,19,20,21,22,23,24
Rce1 inhib,i,i,i,i,i,i,i,.
CSC inhib,70,-7,2,-4,-4,6,-20,.
HIV Env fusion,.,0,.,.,-56,14,-132,-9
MT1-MMP act inh,5,-6,.,1,3,-7,-3,7
MT1-MMP act inh RFP,-4,1,.,-10,2,-3,3,0
Yeast UUG start,-24,-15,.,-20,4,.,3,-18
PABP polyA inh,9,7,0,-2,6,5,9,.
eIF4H FP inh,-4,-5,-5,-3,-1,20,4,.

25: COc1ccc(C(=O)Nc2nc(C)c(C(C)=O)s2)cc1S(=O)(=O)N1CCOCC1
26: CC1CCCC(NC(=O)COC(=O)Cc2cn3ccsc3n2)C1C (stereo not given)
27: CCC(=O)N1CCCC1(C)C(=O)Nc1ccc2scnc2c1 (stereo not given)
28: Cc1ccc(NC(=O)CSc2nnc(-c3ccco3)n2N)cc1F
29: CC1CCc2[nH]c3ccc(C(=O)NCC4CCCO4)cc3c2C1 (stereo not given)
30: O=C(Cc1cccs1)Nc1nc(-c2ccc(F)cc2F)cs1
31: COc1ccc(C2C(C(C)=O)=C(O)C(=O)N2CCCn2ccnc2)cc1 (stereo not given)
32: COc1ccc(C2(CCN=Cc3ccc(N(C)C)cc3)CCOC(C)(C)C2)cc1 (stereo not given)
entry no.,25,26,27,28,29,30,31,32
Rce1 inhib,.,.,.,i,.,i,i,i
CSC inhib,.,.,.,-9,.,.,-9,-10
HIV Env fusion,3,10,-16,10,-30,-2,.,4
MT1-MMP act inh,3,-1,5,-1,3,-5,-2,0
MT1-MMP act inh RFP,-2,6,-2,-1,2,-11,-1,0
Yeast UUG start,-22,-20,-28,-22,-4,-5,-7,-17
PABP polyA inh,.,10,.,-4,.,-13,-2,-1
eIF4H FP inh,.,11,.,-4,.,2,4,15

33: Cc1cccc(-n2ncc3c2CCCC3NC(=O)CCN2Cc3ccccc3C2=O)c1C (stereo not given)
34: CCCCOc1ccc(S(=O)(=O)N2CCN(c3ccc(N4CCN(CC)CC4)nn3)CC2)cc1
35: COc1ccc(S(=O)(=O)NCC2CCCN(Cc3cccnc3)C2)cc1 (stereo not given)
36: FC(F)(F)c1ccc(N2CCN(c3ncnc4c3nnn4Cc3ccccc3Cl)CC2)cc1
37: O=C(CCc1nnc(COc2ccccc2)o1)NCc1ccc(Cl)s1
38: COc1ccc(CCNC(=O)COC(=O)/C=C/c2cc(OC)ccc2OC)cc1
39: CC(C)Cc1nnc(NC(=O)CCC(=O)N2CCN(S(=O)(=O)c3ccccc3)CC2)s1
40: CCc1ccc(N(C(=O)c2ccoc2C)C(C(=O)NC2CCCC2)c2ccc(OC)cc2)cc1 (stereo not given)
entry no.,33,34,35,36,37,38,39,40
Rce1 inhib,i,i,i,i,i,.,i,i
CSC inhib,-3,95*,34,12,-15,14,4,27
HIV Env fusion,.,3,0,.,4,.,.,.
MT1-MMP act inh,9,-2,-6,4,-6,-5,-1,-15
MT1-MMP act inh RFP,-6,-1,-2,-6,-7,-5,1,-17
Yeast UUG start,-12,.,.,.,.,-5,-11,-15
PABP polyA inh,-14,.,-3,-12,-12,.,6,4
eIF4H FP inh,-9,.,-9,4,-9,.,-8,6

41: NC(=O)c1cccn1Cc1cccc(Cl)c1
42: COc1ccc(CCNC(=O)C2CC(c3cc(C(F)(F)F)cc(C(F)(F)F)c3)=NO2)cc1 (stereo not given)
43: CCOC(=O)C(NS(=O)(=O)c1ccc(Br)cc1)C(C)C (stereo not given)
44: Cc1cc(NC(=O)c2noc3c2CCCCC3)no1
45: Cc1ccccc1Oc1nc(-c2ccccn2)nc2ccccc12
46: O=[N+]([O-])c1cccnc1S(=O)(=O)c1ccccc1
47: COc1ccc(C(O)c2nc(-c3ccc(OC)c(OC)c3)cs2)cc1 (stereo not given)
48: Cc1cccc(N2C(=O)C3CCC(c4ccccc4)CC3C2=O)c1 (stereo not given)
entry no.,41,42,43,44,45,46,47,48
Rce1 inhib,i,i,i,i,i,i,.,i
CSC inhib,.,-11,-3,-12,8,16,.,-6
HIV Env fusion,12,29,.,.,12,38,-6,4
MT1-MMP act inh,-10,2,11,-3,-1,-5,5,3
MT1-MMP act inh RFP,3,0,2,2,-6,-5,-9,-4
Yeast UUG start,-10,59,.,-28,-31,-29,-24,.
PABP polyA inh,0,7,-11,-8,4,3,.,18
eIF4H FP inh,5,0,-15,-2,9,-3,.,1

49: CNc1nc(OCC(F)(F)F)nc(N2CCOCC2)n1
50: COCCn1nc2cc(C(=O)NCc3cc(C(F)(F)F)cc(C(F)(F)F)c3)ccc2c1OC
51: CCOc1ccc(CCNC(=O)CN2C(=O)NC(CCSC)C2=O)cc1OCC (stereo not given)
52: COc1ccc(Br)c(C(=O)OCC(=O)NC(=O)NC2CCCC2)c1
53: COc1ccccc1C(=O)NC(=O)COC(=O)c1nc2nc(C)cc(C)n2n1
54: COc1ccc(OC)c(C2CC(=O)C(C)C(c3cc(OC)ccc3OC)N2)c1 (stereo not given)
55: COc1ccc(C)cc1NC(=O)CCS(=O)(=O)c1ccc2c(c1)oc(=O)n2C
56: N#Cc1cc([N+](=O)[O-])ccc1NCCCn1ccnc1
entry no.,49,50,51,52,53,54,55,56
Rce1 inhib,i,i,i,.,i,i,i,i
CSC inhib,1,11,3,13,2,0,-5,-1
HIV Env fusion,.,-7,13,10,-10,.,-1,-71
MT1-MMP act inh,0,-1,3,2,3,3,-3,-4
MT1-MMP act inh RFP,2,2,1,0,4,2,1,-7
Yeast UUG start,-10,-21,-18,12,-9,-13,.,-7
PABP polyA inh,6,6,-18,.,.,-5,0,9
eIF4H FP inh,9,4,-3,.,.,0,-1,-6

57: COc1ccc(-c2cc(-c3ccccc3)no2)cc1
58: C/C(=N\NC(=O)c1ccco1)c1ccc(-c2ccccc2)cc1
59: CCc1nnc(NC(=O)c2ccc(S(=O)(=O)NCC(C)C)cc2)s1
60: CC(=O)N1N=C(c2ccccc2)CC1c1cn(Cc2ccccc2)c2ccccc12 (stereo not given)
61: CN1CCCN(C(=O)Cc2c(Cl)cccc2Cl)c2nc3ccccc3nc21
62: COc1ccc(-c2nn(C)c3sc(C(=O)NCCN(C)C)cc23)cc1OC
entry no.,57,58,59,60,61,62
Rce1 inhib,i,.,i,i,i,i
CSC inhib,14,-4,-9,52,4,-3
HIV Env fusion,-313,-136,.,23,-30,-22
MT1-MMP act inh,3,9,4,-16,-12,11
MT1-MMP act inh RFP,-1,10,-4,-20,1,0
Yeast UUG start,-37,1,-8,.,-7,-7
PABP polyA inh,.,-2,-11,1,8,-4
eIF4H FP inh,.,-5,-2,-2,-1,-6

High-throughput results from PubChem BioAssay.
